Assay outcomes from PubChem BioAssay.
gsp antagonist: antagonizes gsp, the McCune-Albright syndrome mutation; gsp-mutant cells, cAMP HTRF, 30 min; control for the full effect not named in the record; Potency, µM (doses to about 76.9 µM), for inactives: top-dose activity change, negative = inhibition, actives largely listed as inhibitors; actives 0.4% (n = 340,000); AID 624288; active = falling curve of any shape with a large fitted effect; inconclusive = falling curve, mostly with a smaller effect; inactive = flat or rising curve; cell line not stated here;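 note: intracellular cAMP measured with PDE inhibitor Ro 20-1724 present during compound exposure; potency is the fitted concentration of half-maximal effect; % is set by controls: 0 for no effect and ±100 for the full control effect; nearly all actives have a fitted effect of over 65% in size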
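HTRF cAMP read-out (cAMP-d2 plus anti-cAMP antibody-K in lysis buffer, 30 min RT). Before lysis, cells are exposed to compounds with […] for 30 min at 37C in DPBS containing Ca/Mg, BSA and Tween 20.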
Menin-MLL FL inh: displaces fluorescein MLL peptide from human menin | 290,000 tested, under 10 active | Fluorescence polarization, fluorescein-MLL peptide displacement from menin | FP activity change, % at 61.4 µM | AID 1766; inconclusive = falling polarisation curve, or a change in total fluorescence; inactive = total fluorescence flat and polarisation flat or rising; no compound was filed as active; the % refers to the polarisation; negative = inhibition;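 note: % of control where 0% means no effect; inhibitors lower the polarisation; unlabelled MLL peptide was the positive control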
PINK1 expr mod: modulators of PINK1 expression | AID 624263 | actives 0.2% (n = 410,000) | PINK1 immunofluorescence, high-content cytometry, 24 h | Potency, µM (titrated, usually from 76.6 µM), for the others: at the highest dose activation (PINK1 increase), actives largely listed as activators; active = well fitted activation curve with a large enough effect; inconclusive = small, poorly fitted or top-dose-only effect; inactive = flat fitted curve, though single readings scatter; cell line not stated here;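 note: potency is the fitted concentration of half-maximal effect; % of control where 0% means no effect; nearly all actives have a fitted effect of over 65% in size; a mitochondrial uncoupler was the plate control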
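PINK1 protein level read as immunofluorescence by microplate cytometer in a fixed, stained stable cell line after 24 h exposure to five compound concentrations, with CCCP as control.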
D2 agonist: agonists of human D2 dopamine receptor (beta-arrestin). activation, % (concentration not given with the values). P14416. AID 624465. actives 0.084% (n = 360,000). DiscoveRx PathHunter D2 beta-arrestin, luminescence, 90 min; 100% = 57 uM dopamine signal; in the data active = activation above about 40%; inconclusive = about 15% to 40%; inactive = below about 15%; note: compound concentration not given in the record; the text of the record calls up to 30% inactive
Target sequence (P14416 whole entry, looked up): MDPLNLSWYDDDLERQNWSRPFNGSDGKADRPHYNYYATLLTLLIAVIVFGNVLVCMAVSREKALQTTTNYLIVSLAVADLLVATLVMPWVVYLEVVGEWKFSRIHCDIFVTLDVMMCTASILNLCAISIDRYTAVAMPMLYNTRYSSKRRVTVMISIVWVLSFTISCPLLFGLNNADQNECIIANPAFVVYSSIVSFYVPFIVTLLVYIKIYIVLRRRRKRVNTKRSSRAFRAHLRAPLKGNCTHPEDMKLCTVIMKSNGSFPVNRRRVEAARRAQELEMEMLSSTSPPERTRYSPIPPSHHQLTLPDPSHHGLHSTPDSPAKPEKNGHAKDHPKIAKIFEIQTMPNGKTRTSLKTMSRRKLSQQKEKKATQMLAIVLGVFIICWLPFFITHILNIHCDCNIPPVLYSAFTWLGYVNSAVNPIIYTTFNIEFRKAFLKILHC
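DiscoveRx PathHunter D2 beta-arrestin cells (2,100/well) attached overnight, then compound-stimulated 90 min at 37 C in HBSS/10 mM HEPES/0.1% Tween-20 buffer; beta-galactosidase complementation read by luminescence after 1 h at ambient temperature. Dopamine 57 uM final (EC100) as control.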
ClpP mod: qHTS Assay for Activators of ClpP. Potency, µM (doses to about 57.5 µM), inactives show at the top dose activity change, negative = active. actives 1.9% (n = 340,000). purified B. subtilis ClpP, FRET peptide cleavage, 20 min. ATP-dependent Clp protease proteolytic subunit (Bacillus subtilis (strain 168)), P80244; active = well fitted falling curve with a large enough effect; inconclusive = small, poorly fitted or top-dose-only effect; inactive = no such curve, though single readings can be large or run the other way; note: potency is the fitted concentration of half-maximal effect; the source files actives as falling curves though it sought activators and does not explain the sign; nearly all actives have a fitted effect of over 65% in size; many hits overshoot -100%
Target sequence (P80244 whole entry, looked up): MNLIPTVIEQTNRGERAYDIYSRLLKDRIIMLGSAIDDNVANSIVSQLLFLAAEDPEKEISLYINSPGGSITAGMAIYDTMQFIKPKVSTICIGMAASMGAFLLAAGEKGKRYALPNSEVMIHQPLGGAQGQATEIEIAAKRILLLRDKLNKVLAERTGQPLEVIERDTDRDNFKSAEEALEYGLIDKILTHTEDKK
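FRET quenching reversal measured ClpP activation: 10 microg/mL B. subtilis ClpP at pH 8 with the FRET-FV decapeptide, read at 430 nm after 320 nm excitation. The 20-min minus 0-min signal was scaled between DMSO/no-enzyme wells and ADEP (5.8 microM final).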
Sfp PPTase inh: blocks B. subtilis Sfp PPTase activity; AID 1490; Biochemical Sfp PPTase activity, qHTS; actives 3.5% (n = 310,000); Q9F4F7; Potency, µM, for the others: max response, negative = inhibition, actives largely listed as inhibitors; active = well fitted inhibition curve with a large enough effect; inconclusive = small, poorly fitted or top-dose-only effect, or another doubt; inactive = no such curve, though single readings can be large or run the other way;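 note: the enzyme is Sfp with the accession as filed and its product quenches rhodamine fluorescence; potency is the fitted concentration of half-maximal effect; 0% = enzyme reaction without inhibitor and -100% = no enzyme wells; top concentration of the series not given in the record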
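Reaction rates are the 30-min fluorescence difference (ex 525, em 598 nm) in wells containing 15 nM Sfp, 5 uM rhodamine-CoA and 12.5 uM BHQ-2-YbbR at pH 7.6 with 10 mM MgCl2.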
gsp ag: agonists of gsp mutant (McCune-Albright syndrome). gsp mutant cells, cAMP HTRF, 30 min; control for the full effect not named in the record. Potency, µM (titrated, usually from 76.9 µM), for the others: top-dose activation (cAMP increase), usual class: activators. actives 0.13% (n = 340,000). AID 624287; active = well fitted activation curve with a large enough effect; inconclusive = small, poorly fitted or top-dose-only effect, or another doubt; inactive = no such curve, though single readings can be large or run the other way; cell line not stated here;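 note: phosphodiesterase inhibitor Ro 20-1724 added with compounds to block cAMP breakdown; potency is the fitted concentration of half-maximal effect; nearly all actives have a fitted effect of over 60% in size; about a fifth of the inactives were tested at one dose only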
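Cells in DMEM/10% FBS with G418 were pretreated with compounds in DMSO plus […] (300 uM stock) for 30 min at 37C. cAMP was measured by HTRF (cAMP-d2 plus anti-cAMP antibody-K) after 30 min at room temperature.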
* = called active by the depositor; ? = inconclusive; / = not tested or not shown; & = joins results of further samples; [ ] = remark or other dose.

SMILES	gsp antagonist	Menin-MLL FL inh	PINK1 expr mod	D2 agonist	ClpP mod	Sfp PPTase inh	gsp ag
Cn1c(CNc2ccc(F)cc2)nnc1SCC(=O)NNC(=O)Cc1ccccc1	1%	1.2	10%	1.9	/	14%	-27%
CC(C(=O)NC1CCCCCC1)c1ccc([N+](=O)[O-])cc1 (configuration not stated)	-2%	-0.4	5.2%	2.2	-0.7%	6%	1%[15.4 µM]
Cc1ccc2c(c1)N(Cc1ccc([N+](=O)[O-])cc1)C=NS2(=O)=O	-1%	5.9	-0.2%	1.3	/	-3%	-23%[15.4 µM]
CN1C(=O)[C@@H]2[C@@H]3C[C@@H]([C@H]4ON=C(c5ccc(Cl)cc5Cl)[C@@H]34)[C@@H]2C1=O	-10%	5.2	2.2%	-1.7	-1.4%	5%	?
O=C(NCc1ccccn1)C(=O)NN=C1CCCCCCC1	-3%	0.3	1.2%	-4.0	-1.3%	1%	7%
Cc1ccc(C(=O)N/N=C/c2ccc(-c3ccccc3[N+](=O)[O-])o2)cn1	-8%	?	6.3%	6.2	1.0%	?	0%
COc1cc2[nH]c(=O)n(CCC(=O)NCCCN3CCN(c4ccccc4F)CC3)c(=O)c2cc1OC	25%	2.5	-0.2%	6.5	/	16%	0%
CC1=C(C)CC2C(=O)N(Cc3ccccc3)C(=O)C2C1 (configuration not stated)	-1%	0.4	/	-1.9	-0.5%	2%	-40%[inhibitor]
CCC(C(=O)NC(C)(C)C)N(Cc1ccc(F)cc1)C(=O)c1snc(C(N)=O)c1N (configuration not stated)	2%	2.4	0.4%	3.8	-3.8%	12%	5%[15.4 µM]
CCC(=O)Nc1nc2ccccc2n1Cc1ccc(C)cc1	16%	4.0	5.7%	-1.8	-0.7%	23%	6%
CCN(CC)CCCNc1ccc2ncn3c4ccc(O)cc4c(=O)c1c23	?	/	-4.4%	-4.5	0.7%	/	11µM*
O=C(N/N=C/c1cccs1)C1CC(=O)N(c2ccccc2)C1 (configuration not stated)	1%	2.0	1.2%[38.3 µM]	4.1	1.2%	17%	-22%
Cc1ccc(N2C(=O)CCC(C(=O)O)C2c2cccs2)cc1 (configuration not stated)	3%	-1.3	1.9%	-5.4	/	14%	-3%[15.4 µM]
O=C(NCCc1ccccc1F)C1CC(=O)N(c2cccc(C(F)(F)F)c2)C1 (configuration not stated)	-7%	/	-0.6%	-2.3	-1.7%	/	13%
O=C(Nc1ccc(Cl)cc1)N(Cc1cccs1)Cc1cccs1	?	-0.7	?	-1.8	-0.9%	25%	0%
O=C(CN1CCOCC1)Nc1ccccc1Sc1ccccc1	6%	3.1	-0.9%	5.7	/	15%	7%
CCc1ccccc1N(CC(=O)NC1CCCCC1)C(=O)CCCC(=O)Nc1ccccn1	3%	/	-1.4%	0.3	/	10%	-2%[15.4 µM]
COc1cc(/C=C(\C#N)C(=O)Nc2cccnc2)ccc1OC(C)C	-12%	6.0	3.8%	-0.9	-2.8%	13%	-77%[inhibitor]
Cc1ccc(C(=O)NC(=S)/C=C2\N(C)c3ccccc3C2(C)C)cc1	-14%	?	5.0%	-6.9	0.2%	?	19%
O=C(c1cn(-c2ccccc2)nc1-c1cccs1)N1CCN(c2ccc(F)cc2)CC1	-7%	2.9	-0.2%	-0.5	-5.5%	11%	2%
O=C(CN1CCCCC1)Nc1ccccc1Oc1ccccc1	-4%	-0.2	-0.5%	-6.5	/	-3%	1%[15.4 µM]
CC(C)Nc1nc(NC2CCCC2)nc(N2CCOCC2)n1	-7%	/	7.2%	-0.9	1.3%	/	13%[15.4 µM]
Cc1ccccc1NC(=O)NCCCN1CCN(c2ccccc2)CC1	22%	2.0	-0.6%	?	-1.3%	5%	-62%[inhibitor]
COC(=O)c1ccc(N2CCN(C)CC2)c(NC(=O)COc2ccc(C)cc2)c1	-7%	/	-0.7%	-3.3	-1.0%	19%	17%
COc1ccc(C2c3c(ncn(Cc4ccco4)c3=N)Oc3ccc4ccccc4c32)cc1 (configuration not stated)	1%	4.5	-3.0%	0.2	-1.5%	-24%	-4%
CC(C)Cc1ccc(CN2CCCC(NC(=O)c3cnc4ccccn4c3=O)C2)cc1 (configuration not stated)	3%	/	2.1%	1.6	3.6%	/	7%
COC(=O)c1c(NC(=O)c2ccc(C)c(S(=O)(=O)Nc3ccccc3C)c2)sc2c1CCCC2	0%	0.2	6.1%[38.3 µM]	-0.9	-8.6%	3%	-13%
COc1ccc(CNC(=O)C/C(C)=N/NC(=O)C23CC4CC(CC(C4)C2)C3)cc1	1%	-0.2	2.1%	-0.5	/	13%	0%[15.4 µM]
CCN(CC)CCNC(=O)c1ccc(NC(=O)Cc2ccsc2)cc1	23%	/	-0.3%	-1.0	0.5%	10%	-4%
COc1cc(C)c(S(=O)(=O)N2CCCC2)cc1C(C)C	-2%	-5.3	0.8%	-2.3	/	5%	8%[15.4 µM]
CC(C)(C)c1ccc(S(=O)(=O)N2CCN(CC(O)CN3CCOCC3)CC2)cc1 (configuration not stated)	5%	/	1.6%	-0.5	-2.6%	/	-14%
Cc1noc(C)c1C(=O)N(CC(C)C)c1nc2ccccc2s1	-2%	/	0.1%	-2.1	-0.4%	10%	-10%
Cc1ccc(COC(=O)c2nn(C)c(=O)c3ccccc23)cc1	-6%	1.3	3.3%	0.0	/	6%	-15%[15.4 µM]
C=CCC(CC)C(=O)NC(=O)N1CCCc2ccccc21 (configuration not stated)	8%	-0.6	1.7%	-4.3	/	15%	18%
CCCCC1=CC2=C(c3ccco3)C(=O)C(C)(OC(=O)c3ccc(OC)cc3)C(=O)C2=CN1CCCN(CC)CC (configuration not stated)	-10%	-3.4[11.7 µM]	0.0%	-3.5	2.6%	11%&0%	-2%
Cn1c(=O)oc2cc(S(=O)(=O)N3CCc4ccccc4C3)ccc21	2%	-1.0	2.6%	5.3	1.9%	12%	-5%
O=c1[nH]nc(SCCS(=O)(=O)c2ccc(F)cc2)n1-c1ccc2c(c1)OCCO2	-9%	3.2	3.2%	-6.4	/	-5%	?
Cc1ccc(OCC(=O)Nc2ccncc2)cc1C	/	/	1.5%	-1.9	2.9%	/	-28%
CC12CCC(C(=O)NNc3ccccc3)(OC1=O)C2(C)C (configuration not stated)	13%	-7.0	0.2%	-1.0	1.9%	19%	-49%[inhibitor]
Cc1ccccc1CN1CCCNC1=O	-2%	-1.5	5.8%[38.3 µM]	-2.5	2.1%	5%	?
CCN(CC)CCN(Cc1cc2cc3c(cc2[nH]c1=O)OCCO3)C(=S)NCC1CCCO1 (configuration not stated)	3%	-14	-1.1%	-1.8	/	5µM*	?
Cc1ccc(NC(=O)CNc2ccc(OC(C)C)cc2)cc1	5%	-0.9	-1.5%	-1.5	-1.6%	-2%	2%
COC(=O)c1ccc(NC(=S)NC2c3ccccc3CC2O)cc1 (configuration not stated)	-10%	-0.1	-1.7%	0.1	/	8%	-22%
Cc1nc2ccccn2c1-c1ccnc(SCc2ccc(Cl)cc2)n1	0%	-2.0	7.0%	5.0	/	-6%	17%[15.4 µM]
Cc1cc(NC(=O)CCCN2C(=O)c3cccnc3C2=O)ccc1Br	-49%	2.3	1.9%	-3.4	/	17%	22%[15.4 µM]
CCCSC1=C(C#N)C(c2ccccc2C)CC(=O)N1 (configuration not stated)	-9%	2.8	-0.3%	-2.1	1.1%	?	?
CCOC(=O)CN(C(=O)COc1ccc2c(C)cc(=O)oc2c1)c1ccc(OCC)cc1	1%	-0.8	1.1%	-1.1	/	-16%	22%
COc1cc(C)c(NC(=O)c2cc(C3CC3)nc3c2cnn3C(C)C)cc1OC	-8%	/	9.4%	3.6	-0.4%	/	-38%
CN(Cc1cccnc1)C(=O)c1ccc2nc(Cc3ccccc3F)oc2c1	-4%	-6.0	-0.5%	-0.5	1.8%	11%	13%
CC(C)c1ccc(NC(=O)COC(=O)CSc2nnc(N)s2)cc1	1%	11	-1.5%	-1.6	-1.6%	7%	?
OCCC1CN(C2CCSCC2)CCN1C1CCCC1 (configuration not stated)	-1%	0.2	0.8%	-1.5	/	17%	-2%[15.4 µM]
O=C(CN1C(=O)C2C3CCC(C3)C2C1=O)Oc1ccc2ccccc2c1 (configuration not stated)	-3%	2.4	2.4%	1.4	26%	11%	2%
O=[N+]([O-])c1ccc2c(c1)OCCOCCOCCOCCOCCOCCO2	6%	2.6	-0.6%	-1.8	/	7%	-1%[15.4 µM]
COc1ccc(N2C(=O)c3ccccc3NC2c2ccccc2O)cc1 (configuration not stated)	-9%	-4.7	1.3%	-5.4	-16%	-4%	-33%[inhibitor]
COc1cc(OC)nc(Oc2ccccc2C(=O)Oc2ccc(F)cc2Cl)n1	-11%	-0.6	/	-0.9	-7.3%	6%	-48%[inhibitor]
COc1ccc(OC)c(CCNC(=O)CCCc2nnc3n(C)c(=O)c4sccc4n23)c1	-1%	0.2	0.1%&2.4%	1.8	-0.3%	7%	?
Cc1cccc(N2CCN(C(=O)/C=C/c3cccs3)CC2)c1C	-7%	2.2	1.0%	0.6	-0.9%	-35%	2%
Cn1cc(CN2CCN(c3ncccn3)CC2)c(-c2cccc(Cl)c2)n1	-1%	-1.0	0.0%	-3.9	221%	14%	-15%[15.4 µM]
O=S(=O)(c1ccc(F)cc1)N1CC=C(c2ccccc2)CC1	-1%	3.0	3.7%	-5.7	0.2%	-5%	-1%
Cc1ccc(S(=O)(=O)CCC(=O)Nc2cccc(C)c2)cc1	-6%	3.7	1.3%	-2.8	1.2%	0%	-17%

(next part)
SMILES	gsp antagonist	Menin-MLL FL inh	PINK1 expr mod	D2 agonist	ClpP mod	Sfp PPTase inh	gsp ag
CCC(=O)N1CCN=C1SCc1cccc(C(F)(F)F)c1	-3%	/	-1.3%	3.2	-0.7%	13%	29%
COc1ccc(NC(=O)CSc2nc(SC)ns2)cc1	-4%	/	1.6%	-0.6	/	-6%	18%
CCC(C)NC(=O)CSc1nnc(-c2c[nH]c3ccccc23)o1 (configuration not stated)	-39%	0.4	0.7%	-5.2	/	26%	12%[15.4 µM]
c1ccc2[nH]c(NN=C3CCCCCC3)nc2c1	-7%	3.2	1.6%	-4.0	/	21%	2%[15.4 µM]
COCCCN1C(=O)C(CC(=O)NC2CCCC2)CC(C(=O)N2CCOCC2)=C1C (configuration not stated)	/	/	1.5%	-1.3	-0.3%	/	-19%
